Six1-Eya2 blk: qHTS Assay for Inhibitors of the Six1/Eya2 Interaction | 360,000 compounds, 0.56% hits | Homeobox protein SIX1 (Homo sapiens) + Protein phosphatase EYA2 (Homo sapiens), … | activity change, % (no concentration beside the values) | AlphaScreen GST-Six1/His-Eya2 binding, biochemical; active compounds read low; control for the full effect not named in the record | AID 651725, 2012; in the data active = activity change below about -65%; inconclusive = about -30% to -65%; inactive = above about -30%; also: % is scaled to controls: 0 for no effect and ±100 for the full control effect
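GST-Six1 + His-Eya2 (5X stock: 250/500 nM); Tris pH 8.0, 300 mM NaCl, 0.05% BSA, 0.02% Tween 20; GSH donor/Ni acceptor beads; 1 h 37 °C dark; AlphaScreen readout.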
TRPML1 agonist: qHTS for Agonists of the Human Mucolipin Transient Receptor Potential 1 (TRPML1) | TRPML1-expressing cells, Ca2+ dye fluorescence, FDSS; host cell line not named in the record; reference of the full effect not given here | activation, % (concentration not given with the values) | 410,000 compounds, 0.12% hits; in the data active = activation above about 50%; inconclusive = about 30% to 50%; inactive = below about 30%; also: 0% is about no effect; the text of the record puts the active cut at 80%
Target sequence (Q9GZU1 whole entry, looked up): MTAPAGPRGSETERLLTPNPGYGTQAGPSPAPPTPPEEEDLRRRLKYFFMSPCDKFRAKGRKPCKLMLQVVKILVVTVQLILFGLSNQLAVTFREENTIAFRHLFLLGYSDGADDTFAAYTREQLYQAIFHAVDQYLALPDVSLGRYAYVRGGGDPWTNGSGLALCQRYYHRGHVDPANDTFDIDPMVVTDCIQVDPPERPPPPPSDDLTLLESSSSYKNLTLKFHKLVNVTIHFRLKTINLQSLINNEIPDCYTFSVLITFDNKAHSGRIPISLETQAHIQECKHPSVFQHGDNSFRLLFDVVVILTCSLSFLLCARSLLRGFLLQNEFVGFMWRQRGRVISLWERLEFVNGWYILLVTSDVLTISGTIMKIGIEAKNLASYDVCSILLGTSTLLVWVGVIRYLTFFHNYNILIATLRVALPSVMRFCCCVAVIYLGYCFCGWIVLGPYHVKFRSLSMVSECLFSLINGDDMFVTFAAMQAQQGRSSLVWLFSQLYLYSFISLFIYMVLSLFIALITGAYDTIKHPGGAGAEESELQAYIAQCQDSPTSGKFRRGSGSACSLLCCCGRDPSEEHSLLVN
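Tetracycline-induced TRPML1-DL cells are seeded and incubated overnight before loading with a no-wash Ca2+ dye and quencher. Agonist activity is taken from the 110 s fluorescence read following compound pin-transfer on an FDSS, before EC80 54-4 challenge.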
D2 PAM: Beta-Arrestin HTS for Positive Allosteric Modulators of the Human D2 Dopamine Receptor: Potentiators; D(2) dopamine receptor (Homo sapiens), P14416; DiscoveRx D2 beta-arrestin cells, luminescence, 90 min; 100% = 57 uM dopamine signal; potentiation, % (test concentration not listed); 360,000 compounds, 0.23% hits; AID 624464, 2012; active = potentiation of 50% or more; inconclusive = 30% to 50%; inactive = 30% or less;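 also: compound concentration not given in the record; tested on top of an EC20 dose of dopamine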
Target sequence (P14416 whole entry, looked up): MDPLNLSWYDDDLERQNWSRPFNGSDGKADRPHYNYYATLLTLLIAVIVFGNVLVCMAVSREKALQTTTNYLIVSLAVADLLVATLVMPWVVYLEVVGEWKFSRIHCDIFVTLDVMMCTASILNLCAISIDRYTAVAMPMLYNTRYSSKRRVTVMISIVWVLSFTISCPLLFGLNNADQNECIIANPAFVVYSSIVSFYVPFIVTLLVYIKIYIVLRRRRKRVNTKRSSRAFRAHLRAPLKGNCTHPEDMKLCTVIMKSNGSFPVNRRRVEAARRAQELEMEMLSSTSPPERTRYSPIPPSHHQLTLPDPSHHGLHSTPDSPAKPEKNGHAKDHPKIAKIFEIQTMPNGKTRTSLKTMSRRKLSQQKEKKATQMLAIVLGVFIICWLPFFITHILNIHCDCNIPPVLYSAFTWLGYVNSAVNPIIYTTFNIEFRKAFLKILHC
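PathHunter D2 cells, attached overnight at 37 deg C, received compound in DMSO plus dopamine at EC20 (50 nM final) for 90 min at 37 deg C. Beta-arrestin recruitment was read as luminescence after 1 h with detection reagent at ambient temperature.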
PINK1 modulator: A Quantitative High throughput Screen to Identify Chemical Modulators of PINK1 Expression; PINK1 immunofluorescence, high-content cytometry, 24 h; Potency, µM (highest dose often 76.6 µM), without a hit: top-dose activation (PINK1 increase), usual class: activators; 410,000 compounds, 0.2% hits; AID 624263, 2012; active = well fitted activation curve with a large enough effect; inconclusive = small, poorly fitted or top-dose-only effect; inactive = flat fitted curve, though single readings scatter; cell line not stated here;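 also: potency is read from the fitted curve at half-maximal effect; % of control where 0% means no effect; nearly all actives have a fitted effect of over 65% in size; a mitochondrial uncoupler was the plate control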
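Decision-based qHTS: stable cells, 24 h exposure to five compound concentrations, CCCP as control. Fixed cells stained for PINK1 plus nuclear, mitochondrial and cell markers, cytometer read.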
TRPML1 blocker: qHTS for Inhibitors of the Human Mucolipin Transient Receptor Potential 1 (TRPML1); Mucolipin-1 (Homo sapiens), Q9GZU1; TRPML1-inducible cells, Ca2+ dye fluorescence, FDSS; active compounds read low; inhibition of EC80 agonist-evoked calcium signal; activity change, negative = inhibition, % (test concentration not listed); 390,000 compounds, 0.02% hits; AID 624415, 2012; in the data active means activity change below about -50%; inconclusive means about -30% to -50%; inactive means above about -30%;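 also: stimulus is agonist 54-4 at its EC80 concentration; % is scaled to controls: 0 for no effect and ±100 for the full control effect; compound concentration not given in the record; the text of the record puts the active cut at -80%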
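TRPML1-DL cells, Tet-induced overnight (~16 h, 37 °C) at 1,500 cells/well, were loaded with Ca8 no-wash dye plus quencher for 45-90 min at room temperature. Compounds were pinned during FDSS kinetic reading; agonist 54-4 at EC80 (4 uM final) then added.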
D2 ag: Beta-Arrestin HTS for Positive Allosteric Modulators of the Human D2 Dopamine Receptor: Agonists | D(2) dopamine receptor (Homo sapiens), P14416 | DiscoveRx PathHunter D2 beta-arrestin, luminescence, 90 min; 100% = 57 uM dopamine signal | activation, % (concentration not given with the values) | 360,000 compounds, 0.084% hits | AID 624465, 2012; in the data active = activation above about 40%; inconclusive = about 15% to 40%; inactive = below about 15%; also: the text of the record calls up to 30% inactive
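DiscoveRx PathHunter D2 beta-arrestin cells (2,100/well) attached overnight, then compound-stimulated 90 min at 37 C in HBSS/10 mM HEPES/0.1% Tween-20 buffer; beta-galactosidase complementation read by luminescence after 1 h at ambient temperature. Dopamine 57 uM final (EC100) as control.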
The depositor's hits bear a star; ? = inconclusive; / = not tested or not shown; & = joins results of further samples; [ ] = remark or other dose.

SMILES	Six1-Eya2 blk	TRPML1 agonist	D2 PAM	PINK1 modulator	TRPML1 blocker	D2 ag
CCN(Cc1cnn(C)c1)C(=O)c1cc(COc2ccc(F)cc2F)on1	5	0.1	-2	0.8%	-4	1.2
O=C(c1cc2ccccc2oc1=O)N(Cc1cccc(Cl)c1)C1CCS(=O)(=O)C1 (stereo unspecified)	/	18	/	-0.1%	-6	/
Cc1cc(C)n(CC2CC(=O)N(c3cc(Cl)cc(Cl)c3)C2=O)n1 (stereo unspecified)	6	-0.6	8	4.3%	-13	-0.2
COc1cccc(NC(=S)N2CCN(Cc3ccccc3)CC2)c1	-5	0.3	-19	-0.5%	2	-1.6
CC(C)c1ccc(N2C(=O)/C(=C/N(C)C)SC2=S)cc1	?	23	-23	0.7%	-4	-5.1
COc1cc2c(cc1OC)-c1cc(Nc3ccc4c(c3)OCCO4)nc(=O)n1CC2	?	0.3	2	2.9%	-5	-0.3
c1ccc(-c2ncnc3ccccc23)cc1	3	0.5	-13	-0.6%	-23	-1.0
CCOC(=O)N1CCN(C(=O)CSCC(=O)Nc2nc(-c3ccc(-c4ccccc4)cc3)cs2)CC1	-7	0.3	4	-2.7%	2	-0.1
CC(C)(C)CC(=O)Nc1ccc(S(=O)(=O)NC2=NCCCCC2)cc1	8	0.6	-5	0.5%	11	-0.9
CN(C)c1ccc(/C=N\NC(=O)c2cccc3cc[nH]c23)cc1	-9	-0.6	-22	3.7%	-4	-3.8
COc1ncccc1-c1cc2nc(NCCNC(C)=O)n(C)c(=O)c2s1	-12	-0.4	-13	1.4%	/	-4.6
CCc1ccccc1NC(=O)NC1CCCCCCC1	1	-0.6	2	14%	12	-4.8
COC(=O)c1ccc(OCCn2cnc3ccccc3c2=O)cc1	0	0.6	-1	2.6%[38.3 µM]	26	2.7
Cc1ccc(C2=CC(=O)C[C@H](c3ccc(Cl)cc3)C2)cc1	14	3.5	-14	5.5%	71	-5.7
Cc1cccc(NC(=S)NCc2ccccc2)c1C	10	1.0	-4	0.2%	-9	5.3
COc1ccc(C(CC(=O)N2CCOCC2)c2c(OC)cc(OC)c3c(-c4ccccc4)cc(=O)oc23)cc1 (stereo unspecified)	-2	-0.1&1.1	-6	0.3%	6&4	-1.1
COc1ccc(-c2nc3sc(CCNC(=O)Cc4ccc(Cl)cc4)c(C)n3n2)cc1	/	1.9	/	0.9%	-22	/
COc1cccc(-c2nn(-c3ccc(F)cc3)cc2C(=O)NCC2CCCO2)c1 (stereo unspecified)	-2	-0.7	-15	3.4%	-15	-2.1
CCn1nnc(NC(=O)CSc2ccc(Cl)cc2)n1	-4	1.5	-9	-14%[38.3 µM]	4	-0.6
CCCc1ccc(OCC(O)CN2CCN(CCO)CC2)cc1 (stereo unspecified)	6	1.9	-3	-0.1%	10	-2.9
Cc1cc(=O)oc2cc(OCC(=O)OCC(=O)N3CCc4ccccc43)ccc12	-1	0.9	0	0.3%	-18	-1.1
Cc1csc2c(=O)n(CCO)c(=O)[nH]c12	-4	3.7	0	-0.6%	-13	4.1
COc1ccc(C(=O)CSc2nnnn2Cc2ccccc2)cc1	8	3.2	-17	-0.1%	-10	0.8
O=c1cc(-c2ccncc2)oc2c1ccc1ccccc12	-8	-0.8	-15	-2.1%	43	0.0
CCOC(=O)Cn1cc(/C=N/NC(=O)c2cc3ccccc3o2)c2ccccc21	-16	-0.9	-6	2.5%	-14	-2.2
CCCCNC(=O)CC1N=C2c3ccccc3N=C(SCC(=O)Nc3ccccc3C)N2C1=O (stereo unspecified)	3	-0.1	11	2.0%	-7	0.2
CCOc1ccc(NC(=O)CCCN2C(=S)NC(C)(C)CC2C)cc1 (stereo unspecified)	-16	-0.2	-2	-1.3%	-3	-1.5
N#Cc1ccc(C23CC4(C2)[C@H](CN(Cc2ccc(C(F)(F)F)cc2)[C@@H]4c2ccccc2)C3c2ccc(C(F)(F)F)cc2)cc1 (stereo partly specified)	4	0.1	-4	1.5%	-11	-7.5
NC(=O)c1cc(S(=O)(=O)Nc2ccc(OC(F)(F)F)cc2)cs1	-2	1.1	-8	0.4%	-20	5.4
CCNc1ccc(C(=O)OCC)cc1NC(=O)c1cccc(S(=O)(=O)N2CCOCC2)c1	3	-0.3	-9	3.3%[38.3 µM]	1	-1.1
O=C(CSc1nnc(Cc2csc(Nc3cccc(Cl)c3)n2)o1)N1CCc2ccccc21	-17	-0.9&1.3	9	0.3%&-1.6%	-9	3.2
Cc1ccc(-n2ncc(C(=O)NCc3ccccn3)c2C2CCN(C(=O)OC(C)(C)C)CC2)cc1C	/	1.5	/	-0.3%	9	/
CC1CCc2noc(NC(=O)c3ccccc3[N+](=O)[O-])c2C1 (stereo unspecified)	/	0.6	/	-0.9%	39	/
CCC(=O)N1CC2(CC(c3cccc([N+](=O)[O-])c3)=NO2)C[C@H]1C(=O)NCC(N)=O (stereo partly specified)	4	-0.4	-6	-1.7%	3	-0.6
CCOC(=O)c1c(CN2CCOCC2)n(-c2ccccc2)c2cc(Br)c(O)c(CN(C)C)c12	1	0.4	-4	-1.3%	16	-1.5
COc1cccc(N2CCN(C(=O)c3nn(C)c4c3CSc3ccc(C)cc3-4)CC2)c1	/	-0.1	/	2.5%	26	/
Cc1ccc(-c2csc(NC(=O)CSc3nc(C)cs3)n2)cc1	-5	0.3	11	5.2%	6	-1.3
CCC(C)[C@H](NC(=O)NCc1ccccn1)C(=O)OC (stereo partly specified)	-10	0.2	-14	9.3%[38.3 µM]	-15	-1.3
Cc1ccc(C)c(NC(=O)CSc2nnc(-c3cc(C)[nH]n3)n2N)c1	5	-0.5	-8	-1.2%	6	-5.3
CCn1cc(C(=O)Nc2ccc3c(c2)OCCO3)c2cc(OC)c(OC)cc2c1=O	1	-0.8	-2	-0.3%	4	8.3
N=C1S/C(=C\c2cccc3ccccc23)C(=O)N1c1ccc(F)cc1	0	0.1	-22	-0.8%	13	-2.7
CCC(Cc1ccccc1)NC(=O)c1cccc(Nc2nc3ccccc3nc2-n2nc(C)cc2C)c1 (stereo unspecified)	/	-0.5	/	-0.1%	27	/
O=C(NCC1CCCN(C(=O)Cc2ccccc2Cl)C1)c1ccc(F)cc1 (stereo unspecified)	3	-0.7	-10	0.7%	5	3.5
COc1cccc(-c2ccc(SCC(=O)N3CCN(c4ccccc4)CC3)nn2)c1	-2	1.5	-3	-0.3%	7	1.8
CC1CCN(C(=O)c2cc3ccccc3cc2O)CC1	1	7.6	-15	-0.7%	60	-7.3

Grouped by structure: the compounds so far containing a nitro group on carbon (two)
SMILES	Six1-Eya2 blk	TRPML1 agonist	D2 PAM	PINK1 modulator	TRPML1 blocker	D2 ag
CC1CCc2noc(NC(=O)c3ccccc3[N+](=O)[O-])c2C1 (stereo unspecified)	/	0.6	/	-0.9%	39	/
CCC(=O)N1CC2(CC(c3cccc([N+](=O)[O-])c3)=NO2)C[C@H]1C(=O)NCC(N)=O (stereo partly specified)	4	-0.4	-6	-1.7%	3	-0.6

Whole records, looked up by structure. Order of values: Six1-Eya2 blk, TRPML1 agonist, D2 PAM, PINK1 modulator, TRPML1 blocker, D2 ag
Entry for O=C(NCC1CCCN(C(=O)Cc2ccccc2Cl)C1)c1ccc(F)cc1 (stereo unspecified) = 3, -0.7, -10, 0.7%, 5, 3.5
Entry for Cc1ccc(C)c(NC(=O)CSc2nnc(-c3cc(C)[nH]n3)n2N)c1 = 5, -0.5, -8, -1.2%, 6, -5.3

The list goes on.
SMILES	Six1-Eya2 blk	TRPML1 agonist	D2 PAM	PINK1 modulator	TRPML1 blocker	D2 ag
Cc1cc(OCC(=O)NCCN2CCOCC2)cc(C)c1Br	13	-0.6	-24	1.7%	53	-3.8
COc1ccc2c(CC(=O)OCC(=O)N(C)c3c(N)n(Cc4ccccc4)c(=O)[nH]c3=O)coc2c1	1	1.9	3	1.0%	-8	-3.1
CC(CC(=O)NC1CCCCC1)S(=O)(=O)c1ccc2c(c1)CCN2C(=O)C1CC1 (stereo unspecified)	1	-1.2	-10	0.5%	-9	-2.3
Nc1nonc1-c1nc2ccccc2n1CC(=O)N/N=C/c1ccc(-c2ccccc2C(=O)O)o1	?	-0.4	0	0.2%	11	0.3
CCN(C(=O)c1cc2c(=O)oc3ccc(C)cc3c2s1)c1ccccc1F	/	-0.7	/	1.1%	6	/
CC1(C)Cc2ccccc2-c2nc(NN)[nH]c(=O)c21	4	0.2	-11	-0.3%	?	-12
Fc1ccc(-c2nnc(-n3nnc4ccccc43)c3ccccc23)cc1	0	1.0	-6	5.4%	15	-2.5
CCOc1ccc2ccccc2c1/C=N/NC(=O)c1c(C)cc(C)[nH]c1=O	0	3.4	-2	2.5%	29	-0.6
Cc1ccc(C(=O)NC(C)c2ccc(-n3ccnc3)cc2)cc1S(=O)(=O)N1CCOCC1 (stereo unspecified)	-4	-0.4	1	2.0%	37	-2.2
C=CCNC(=O)COc1ccc(S(=O)(=O)NC2CCCCC2)cc1	4	-0.4	2	9.0%[38.3 µM]	-14	-0.2
CCOC(=O)C1(C)CCN1C(=O)c1ccccc1OC(F)(F)F (stereo unspecified)	7	-0.9	-2	0.9%	/	-2.3
CC(NC(=O)COc1ncnc2cc([N+](=O)[O-])ccc12)c1ccccc1 (stereo unspecified)	0	0.3	9	-0.4%	16	2.2
CCCn1c(=O)[nH]c(=O)c2c1nc(-c1ccccc1OC(F)F)n2CCOC	5	-1.3	-9	-2.7%	8	-0.4
CCN1C(=O)CSC1=Nc1ccc(OC)cc1	6	-0.2	-4	2.8%	-4	1.2
Cc1ccc(-c2noc(CN3C(C)CCCC3C)n2)cc1 (stereo unspecified)	1	-0.5	-4	8.1%	48	-2.9
Cc1cnc(NC(=O)c2ccncc2)s1	2	-0.7	-13	-0.3%	2	-0.8
O=C(Cc1ccccc1F)Nc1cc(S(=O)(=O)N2CCCCC2)ccc1N1CCOCC1	-3	0.6	-5	2.1%	-1	1.5
CC(C)C[C@H]1CNC(=O)C(=O)N1C[C@@H]1CCCN1C[C@H](Cc1ccc(O)cc1)N1C[C@H](Cc2ccccc2)N(CC2CCCCC2)C(=O)C1=O	4	-0.3	/	-0.2%	/	/
CN(C(=O)CSc1nnc(-c2ccc([N+](=O)[O-])cc2)o1)c1ccccc1	/	1.1	/	-0.7%	-11	/
O=C(NCc1ccc(F)cc1)C1CCN(C(=O)Nc2ccc(F)cc2)CC1	5	-0.8	-4	0.8%	6	-2.3
C=CCn1c(SCC(=O)NCC)nc2sc3c(c2c1=O)CCC3	-3	-0.6	-4	4.6%	2	9.9
C/C(=N\NC(=S)NCCc1ccccc1)c1ccc(O)cc1O	?	0.6	-12	3.1%	4	3.0
Cc1ccc(C(=O)N2c3ncnn3C3(CCCCC3)[C@@H]3CCCC[C@@H]32)cc1	/	0.3	/	-0.8%	-4	/

Screens as filed in PubChem.
